Source: PubChem BioAssay (National Center for Advancing Translational Sciences (NCATS))
Cruzain inh noDet: blocks cruzain activity in detergent-free assay | purified cruzain, Z-FR-AMC fluorescence, no detergent | Potency, µM, inactives show max response, negative = inhibition, usual class: inhibitors | P25779 | hit rate 2.3% among 200,000 | AID 1476; active means well fitted curve in the direction sought with a large enough effect; inconclusive means small, poorly fitted or top-dose-only effect, or another doubt; inactive means no such curve, though single readings can be large; an effect the other way counts as inactive or inconclusive;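 further: plate controls were enzyme without inhibitor for no effect and buffer without enzyme for full effect; nearly all actives have a fitted effect of over 40% in size; top concentration of the series not given in the record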
Target sequence (P25779 123-467 limits assumed): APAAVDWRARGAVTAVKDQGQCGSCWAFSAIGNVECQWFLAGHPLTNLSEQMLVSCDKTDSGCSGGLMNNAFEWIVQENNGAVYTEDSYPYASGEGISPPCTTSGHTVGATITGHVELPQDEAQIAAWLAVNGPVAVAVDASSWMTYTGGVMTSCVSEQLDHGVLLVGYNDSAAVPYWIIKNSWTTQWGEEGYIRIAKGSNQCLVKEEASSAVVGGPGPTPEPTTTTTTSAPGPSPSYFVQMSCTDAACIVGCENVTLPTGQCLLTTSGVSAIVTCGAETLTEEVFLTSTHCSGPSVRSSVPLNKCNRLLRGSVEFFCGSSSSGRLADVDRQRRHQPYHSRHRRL
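Detergent-free condition (0.00005% Triton X-100) in acetate buffer pH 5.5 with DTT. 1.5 nM enzyme and compound were pre-mixed 15 min, then 2 uM Z-FR-AMC substrate added; reaction progress from fluorescence change between first and third reads (60 s).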
SARS PLP yeast: blocks SARS-CoV papain-like protease in a yeast assay. S. cerevisiae expressing SARS-CoV PLpro, growth rescue; control for the full effect not named in the record. Potency, µM (highest dose often 32.9 µM), for the others: at the top dose activity, positive = growth rescue. hit rate 0.19% among 330,000. AID 485353; further: 0% is about no effect; nearly all actives have a fitted effect of over 55% in size; growth read by luminescence after 48 h
Marburg entry inh: blocks Marburg virus binding to or entry into cells | Marburg virus pseudotyped entry inhibition, cell reporter; control for the full effect not named in the record; about a third of the inactives were read at about 46 µM | Potency, µM (titrated, usually from 37.8 µM), inactives show at the highest dose activity change, negative = inhibition, usual class: inhibitors | AID 540276 | hit rate 1.8% among 300,000; active = well fitted inhibition curve with a large enough effect; inconclusive = small, poorly fitted or top-dose-only effect, or effect the other way; inactive = flat fitted curve, though single readings scatter; tested in HEK293 cells; about a fifth of its hits are not listed in these tables; further: on the % scale 0 is the no-effect control and ±100 the full control effect; luciferase read-out
Cruzain inh Det: inhibitors of Trypanosoma cruzi cruzain with detergent | P25779 | purified cruzain, Z-FR-AMC fluorescence, 0.01% Triton | Potency, µM, inactives show max response, negative = inhibition, actives largely listed as inhibitors | hit rate 0.43% among 200,000 | AID 1478; active means well fitted curve in the direction sought with a large enough effect; inconclusive means small, poorly fitted or top-dose-only effect, or another doubt; inactive means no such curve, though single readings can be large; an effect the other way counts as inactive or inconclusive;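 further: plate controls were neutral wells for no effect and buffer without enzyme for full effect; nearly all actives have a fitted effect of over 40% in size; top concentration of the series not given in the record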
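15 min RT preincubation of 1.5 nM cruzain with compound, then 2 uM Z-FR-AMC added; kinetic AMC fluorescence, 60 s delta. Triton X-100 0.01%, pH 5.5.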
Lassa entry inh: inhibitors of Lassa virus binding or cell entry | hit rate 1.2% among 300,000 | Potency, µM (top dose mostly 37.9 µM), inactives show at the highest dose activity change, negative = inhibition, hits mostly inhibitors | Lassa virus pseudotype entry inhibition, cell reporter; control for the full effect not named in the record; active means well fitted inhibition curve with a large enough effect; inconclusive means small, poorly fitted or top-dose-only effect, or effect the other way; inactive means flat fitted curve, though single readings scatter; tested in HEK293 cells; further: on the % scale 0 is the no-effect control and ±100 the full control effect; nearly all actives have a fitted effect of over 50% in size; luciferase read-out
NS1 inh: inhibitors of influenza NS1 protein function. S. cerevisiae slowed by influenza A NS1, growth recovery by OD600. Potency, µM (series often up to 46.1 µM), for inactives: at the highest dose activity, positive = more growth. hit rate 0.4% among 270,000; further: actives are rising curves; nearly all actives have a fitted effect of over 50% in size
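Read-out: OD600 growth recovery of NS1-expressing budding yeast. Cells grown overnight at 30C in -URA glucose medium, washed, resuspended and diluted 1:100 in 2% galactose assay medium, pH 6.0. Same strain lacking NS1 served as positive control.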
RE007 growth inh: less growth of the S. pombe RE007 Vpr strain | S. pombe RE007 Vpr strain, BacTiter-Glo ATP luminescence, 24 h; control for the full effect not named in the record | Potency, µM (top dose mostly 92.2 µM), inactives show at the highest dose activity change, negative = less growth | hit rate 0.21% among 360,000 | AID 651644; active = well fitted falling curve with a large enough effect; inconclusive = small, poorly fitted or top-dose-only effect; inactive = no such curve, though single readings can be large or run the other way;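 further: on the % scale 0 is the no-effect control and ±100 the full control effect; nearly all actives have a fitted effect of over 50% in size; the assay follows cell death caused by Vpr and the record does not say whether a fall means rescue or toxicity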
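Fission yeast strain RE007, carrying one chromosomally integrated HIV-1 vpr copy, was seeded at OD 0.01 in PMG+AL medium with 23 nL pinned compound. After 24 h at 30 °C and 99% humidity, viability was read by BacTiter-Glo luminescence.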
StopGo reporter: FMDV 2A StopGo reporter, luciferase signal; AID 1159524; Potency, µM (top dose mostly 57.9 µM), for the others: at the highest dose signal change, negative = less light; hit rate 1.2% among 410,000; human cells with a luciferase reporter of 2A StopGo recoding; control for the full effect not named in the record; active = well fitted falling curve with a large enough effect; inconclusive = small, poorly fitted or top-dose-only effect; inactive = no such curve, though single readings can be large or run the other way; tested in HEK293T cells; further: on the % scale 0 is the no-effect control and ±100 the full control effect; nearly all actives have a fitted effect of over 45% in size; luciferase light after 4 h
An asterisk follows results filed as active; ? = inconclusive; nt = not tested or not shown; [ ] = another dose, or the depositor's remark. Unless noted, the call rests on the fitted dose curve; in most records, active means well fitted rising curve with a large enough effect; inconclusive means small, poorly fitted or top-dose-only effect; inactive means no such curve, though single readings can be large or run the other way. Potency means the concentration at half of the fitted maximal effect. Not a hit list, and some 4.6% of all compounds hit somewhere here.

SMILES | Cruzain inh noDet | SARS PLP yeast | Marburg entry inh | Cruzain inh Det | Lassa entry inh | NS1 inh | RE007 growth inh | StopGo reporter
O=S(=O)(c1cccc(Cn2nnc(-c3ccc(F)cc3)n2)c1)N1CCOCC1 | nt | -2% | -14% | nt | -10% | -10% | 3% | -27%
Nc1c(Cl)ncnc1N/N=C/c1ccc(O)cc1 | nt | -1% | -2% | nt | nt | -6% | -12% | 47%[activator]
CSc1oc(-c2cccs2)nc1S(=O)(=O)c1ccc(Br)cc1 | ? | nt | -1%[46.1 µM] | -4.2% | -11%[46.1 µM] | nt | nt | 19%
CCOC(=O)C1(C)NC(c2ccc(OC)c(OC)c2)C2C(=O)N(CC)C(=O)C21 (stereo not drawn) | 0% | 0% | ? | 3.5% | -3% | 4% | -13% | -8%
CCS(=O)(=O)CCSC1OC(COC(C)=O)C(OC(C)=O)C(OC(C)=O)C1OC(C)=O (stereo not drawn) | nt | -1% | 1%[46.1 µM] | nt | -8% | 3% | -20% | 0%
O=C(O)C1CCCCC1C(=O)Nc1ccc(S(=O)(=O)N2CCCC2)cc1 (stereo not drawn) | nt | 1% | 0%[46.1 µM] | nt | 14%[46.1 µM] | 2% | -8% | -5%
COc1ccc(C2=NN(C(=O)c3ccco3)C(c3ccco3)C2)cc1OC (stereo not drawn) | nt | 4% | -27%[46.1 µM] | nt | ? | 2% | -11% | 10%
CCOC(=O)c1ccc(N2CCN(c3ccccc3OC)CC2)c(NC(=O)Nc2ccc(CC)cc2)c1 | -4% | nt | nt | 0.7% | 22%[46.1 µM] | nt | nt | ?
Cn1c2ccccc2c2nnc(SCC(=O)NC3CC3)nc21 | nt | 1% | 17%[46.1 µM] | nt | -7% | -7% | -13% | 4%
COc1cc(NC(=S)NC(=O)c2ccc(C)cc2C)ccc1NC(=O)c1cccs1 | -71% | 9% | 6% | 6.0% | -3% | ? | -3% | -19%
CCN1CCN(C(c2cccs2)C(C)NC(=O)c2cccnc2)CC1 (stereo not drawn) | 3% | -2% | ? | 5.3% | -2% | 0% | 2% | 21%
Cc1cc(Br)ccc1S(=O)(=O)NCc1ccccc1 | nt | 0% | nt | nt | nt | -11% | -4% | 68%[activator]
CCCCn1c(SCc2cc(=O)n3ccsc3n2)nc2cc(C(=O)OC)ccc2c1=O | 23% | 0% | 0% | 0.5% | nt | 0% | nt | nt
Cc1ccc2c(c1)-c1c(c(C(=O)N3CCN(c4cc(C)ccc4C)CC3)nn1C)CS2 | -5% | nt | nt | 1.7% | 3%[46.1 µM] | nt | nt | -20%
CCCCCN(C(=O)COC(=O)c1ccc(Br)o1)c1c(N)n(CCCC)c(=O)[nH]c1=O | 19% | 5% | 30% | 6.0% | 1% | 14% | -11% | 5%
CCCn1c(SCC(=O)Nc2ccc(OC)cc2[N+](=O)[O-])n[nH]c1=O | nt | 1% | -7% | nt | ? | nt | 3% | -25%
CCN(C(=O)COC(=O)c1ccc(OC)c(S(=O)(=O)N(C)Cc2ccccc2)c1)C1CCS(=O)(=O)C1 (stereo not drawn) | nt | -1% | -18%[46.1 µM] | nt | -25% | nt | 10% | -3%
Cc1ccc2c(=O)cc(C(=O)Nc3ccc(S(=O)(=O)Nc4nc(C)cc(C)n4)cc3)oc2c1 | -3% | nt | 9%[46.1 µM] | -11% | 21%[46.1 µM] | nt | nt | 10%
Cc1ccc2nc(N3CC(=O)Nc4ccccc43)nc(-c3ccccc3)c2c1 | -1% | 2% | ? | -3.0% | ? | -18% | 3% | -23%
CC(C)c1ccc(NC(=O)Cn2cccc2C2=NC(c3ccccc3)CO2)cc1 (stereo not drawn) | 10% | 3% | 3% | -7.7% | -13% | 2% | -22% | -15%
CC1=C(C(=O)Nc2ccccc2)C(c2ccco2)n2ncnc2N1 (stereo not drawn) | 6% | 4% | 6% | -1.6% | 4% | 1% | 1% | nt
O=C(N[C@@H](Cc1ccccc1)C(=O)N1CCN(S(=O)(=O)c2ccccc2F)CC1)c1ccco1 | nt | -1% | 9% | nt | -6% | nt | 5% | -25%
Cc1ccc(/C=C/C(=O)NCc2ccc(S(N)(=O)=O)cc2)o1 | nt | 0% | 16%[46.1 µM] | nt | -7% | 6% | -6% | 2%
Cc1csc(SCC(=O)Nc2cc(C(N)=O)cc(C(N)=O)c2)n1 | nt | 7% | 19% | nt | ? | nt | 1% | -3%
COc1ccc(N/C(C)=C/C(=S)Nc2ccccc2)cc1 | -4% | -17% | ? | -4.2% | ? | 8% | ? | 44%[activator]
COc1ccc(CCNC(=O)c2ccc3c(c2)N(Cc2cccc(Cl)c2)C(=O)CS3)cc1OC | -1% | nt | ? | -3.3% | ? | nt | nt | -21%
CC1(c2ccc3c(c2)OCO3)NC(=O)N(CC(=O)Nc2ccccc2[N+](=O)[O-])C1=O (stereo not drawn) | nt | 1% | -2% | nt | -18% | nt | 15% | -31%
COC(=O)CSc1nc(-c2ccccc2)c2c(c1C#N)CCCC2 | 3% | -15% | -19% | -6.4% | 2% | 4% | ? | -28%
CCN(CC)c1ncnc2c1cnn2Cc1ccc(C)cc1 | nt | -1% | ? | nt | -4% | -7% | 14% | 0%
O=C1CC(c2cccc(Br)c2)c2cc3c(cc2N1)CCC3 (stereo not drawn) | 8% | -36% | ? | -6.6% | ? | -166% | 6% | ?
COc1ccccc1-c1cc(C(=O)N/N=C\c2cnn(C)c2C)c2ccccc2n1 | ? | 10% | -2% | -5.8% | ? | -12% | 43% | -21%
Cc1nc(N2CCC(C)CC2)c(C#N)c(C)c1[N+](=O)[O-] | nt | 1% | -2%[46.1 µM] | nt | ? | -3% | -24% | -20%
CCN(C(=O)CSc1nc2c(cnn2-c2ccccc2)c(=O)[nH]1)C1CCS(=O)(=O)C1 (stereo not drawn) | -1% | 14% | -1% | -1.7% | 6% | 8% | 22% | -18%
O=C(CNc1cc(S(=O)(=O)N2CCOCC2)ccc1N1CCCC1)N1CCc2ccccc21 | nt | -1% | -25% | nt | -9% | -1% | 21% | 0%
COc1ccc2[nH]c(C)c(C(=O)CN3CC(C)OC(C)C3)c2c1 (stereo not drawn) | 1% | 2% | -1% | -1.1% | 5% | 6% | 0% | -21%
COc1ccc(NS(=O)(=O)c2ccc(O)c([N+](=O)[O-])c2)cc1S(=O)(=O)N1CCCCC1 | nt | -25% | 13%[46.1 µM] | nt | 12%[46.1 µM] | nt | -8% | 78%[activator]
CC(C)(C)NC(=O)CN(C(=O)c1csnn1)c1ccccc1-c1ccccc1 | nt | 0% | 0%[46.1 µM] | nt | 5%[46.1 µM] | 1% | 2% | 14%
CCOc1ccc(/C=N/n2c(SC)nnc(C(C)(C)C)c2=O)cc1 | 11% | 23% | -3% | -6.4% | 10µM* | -1% | 12% | -4%
COC(=O)c1ccc(COc2ccccc2[N+](=O)[O-])o1 | -10% | -9% | 35% | -2.5% | 9% | -13% | 8% | 44%[activator]
Cc1cc(C)c(C(=O)N2CCCC(N3CCN(c4ccc(F)cc4)CC3)C2)o1 (stereo not drawn) | nt | 0% | ? | nt | ? | -22% | -14% | ?
O=C(c1cccc(Cl)c1Cl)N1CCN(c2ccccn2)CC1 | -4% | -11% | 10% | -3.2% | -12%[14.3 µM] | -32% | 13% | 12%
COc1cccc(N2CCN(C(=O)C3CCN(S(=O)(=O)c4cn(C)cn4)CC3)CC2)c1 | 0% | nt | nt | -0.9% | -8%[46.1 µM] | nt | nt | -11%
CC(=O)C1=C(O)C(=O)N(CC(=O)O)C1c1ccccc1Cl (stereo not drawn) | -10% | -3% | nt | -8.6% | nt | 9% | 5% | -6%
COCCn1nnnc1CN1CCC(NC(=O)c2ccc(Br)cc2)CC1 | -1% | -6% | 5%[46.1 µM] | 0.4% | 16% | -1% | 5% | -3%
O=C(Nc1nonc1-c1ccc(Cl)cc1)c1ccccc1 | nt | -10% | 18%[14.2 µM] | nt | -10% | nt | -7% | -18%
Cn1nc(C(F)(F)F)c(CNC(=O)C(C)(C)CCl)c1N1CCOCC1 | nt | 1% | -19%[46.1 µM] | nt | 11%[46.1 µM] | 0% | 7% | -6%
COc1ccc(N2CCN(C(CNC(=O)C(=O)NCC(OC)OC)c3ccco3)CC2)cc1 (stereo not drawn) | nt | 1% | nt | nt | nt | -8% | 7% | -2%
COc1ccc(C(=O)NCC(=O)N/N=C/c2cccnc2)cc1OC | nt | 6% | -30%[46.1 µM] | nt | 27%[46.1 µM] | 0% | 9% | -15%
CCCCCCN=C1CC(C)(C)CC(=O)/C1=C(/O)CCC | nt | 0% | -29% | nt | -2% | -36% | 25% | ?
CCCc1cc(=O)[nH]c(SCC(=O)N2CCN(S(=O)(=O)c3ccccc3)CC2)n1 | -2% | 12% | 27% | 0.0% | -21% | 3% | 3% | 7%
CCCCOC(C)n1cc(F)c(=O)[nH]c1=O (stereo not drawn) | 2% | -3% | 1% | -1.8% | -14% | -1% | 0% | -3%
CC(=O)Nc1c(O)c2cccc3c2n(c1=O)CCC3 | nt | nt | 5% | nt | 6% | nt | -14% | 9%
CCCN1CCN(CCCNC(=S)Nc2ccc(OC)cc2)CC1 | 0% | -6% | 1% | 0.8% | -9% | -2% | 6% | -16%
CC(C)Oc1ccc(C(=O)Nc2c3c(nn2-c2ccccc2)CS(=O)(=O)C3)cc1 | nt | 1% | 2% | nt | -11% | 8% | 21% | -13%
COc1ccc(NC(=O)C2CCN(S(=O)(=O)c3cn(C)cn3)CC2)cc1Cl | 2% | nt | nt | -0.7% | 18%[46.1 µM] | nt | nt | -11%
O=C(O)c1cc(N/N=C/c2cccc3ccccc23)ccc1Cl | nt | 2% | 26%[46.1 µM] | nt | nt | 14% | -9% | 0%
O=Cc1c(Cl)nc2ccccn12 | nt | 0% | 7%[46.1 µM] | nt | 15% | 2% | 32% | -13%
CN(C)CCCNS(=O)(=O)c1ccc(-n2nnc3ccccc32)c([N+](=O)[O-])c1 | nt | 1% | ? | nt | -26% | -12% | -15% | -1%
